RN4220 kill: S. aureus RN4220 growth inhibition | inhibition, % (test concentration not listed) | OD600, 16 h | AID 1259311 | hit rate 0.33% among 330,000;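 active = z-score of -3 or lower and OD600 up to 0.18 on both plates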;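 also: plate controls were untreated cells for no effect and reference antibiotic for full effect; stock transfer was 100 nL into about 80 µL; one replicate is shown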
PrP 5UTR inh: inhibition of PrP 5' UTR reporter expression. cell-based PrP 5' UTR mRNA reporter, plate reader. inhibition, % (concentration not given with the values). hit rate 0.35% among 340,000. AID 488862;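 active = every replicate at 50% or more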;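 also: 0 = median of the neutral control wells; tested in H4 reporter cells; numbers are from one replicate; inactives centre near -14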
BJeLR lethal: BJeLR cell viability loss | hit rate 0.17% among 300,000 | BJeLR (HRASV12) viability, CellTiter-Glo ATP luminescence, 48 h; reference of the scale not given here | inhibition, % (no concentration beside the values);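 active = replicate mean above 50%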;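 also: 50 nL library stock added to about 25 µL; numbers are from one replicate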
Mtb hypoxia inh: Mtb hypoxia fluorescent reporter inhibition; AID 1159583; hit rate 0.1% among 300,000; M. tuberculosis hypoxia-regulated fluorescent reporter, fluorescence; fluorescence inhibition, % (test concentration not listed);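 active = 35 to 45% if threefold the growth effect, above 45% if 1.5-fold the growth effect; inactive = the rest, general growth blockers included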;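 also: wells of about 50 µL received 100 nL stock; 0% = vehicle wells and 100% = reference inhibitor wells; whole bacteria with a GFP reporter of the hypoxia response; strong numbers were not always called active; many hits fall short of the cut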
ugtP null kill: growth inhibition of S. aureus ugtP deletion strain; growth inhibition, % (no concentration beside the values); hit rate 0.54% among 330,000; S. aureus RN4220 ugtP deletion, OD600 growth, 16 h; some inactives read as strong as hits; AID 1259309;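 active = z-score under -3 and OD600 up to 0.15 on both plates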;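 also: plate controls were untreated wells for no effect and antibiotic for full effect; wells of about 80 µL received 100 nL stock; the first replicate is given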
Autofluor counter: flagged as autofluorescent in microsphere protease counterscreen; fluorescence intensity (concentration not given with the values); AID 624483; hit rate 3.1% among 360,000; compound autofluorescence counterscreen, microsphere flow cytometry; stronger effect = higher value;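 active = at least 3 SD above the mean of all compounds, about 16000 in these data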;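 also: 100 nL of 1 mM stock went into each well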
Mtb hypoxia inh growth: second read-out of Mtb hypoxia inh, no call of its own (marks repeat the call); growth inhibition, %; measured here: M. tuberculosis growth (absorbance);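 0% = vehicle and 100% = reference antibiotic; read after six days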
The depositor's hits bear a star. An unsorted share of the library. Share with any hit: about 4%.

Screening CC(=O)Nc1ccc(C(=O)COC(=O)C2CC3CCCC(C2)C3=O)cc1 (configuration not stated) returned RN4220 kill 4.8, PrP 5UTR inh -40, BJeLR lethal 5, Mtb hypoxia inh 0, ugtP null kill 1, Autofluor counter 5830 and Mtb hypoxia inh growth -4.
Cc1nc(S(=O)(=O)N(C)c2ccccc2)c(C#N)c(C)c1Cl was read as RN4220 kill -0.8, PrP 5UTR inh -7, BJeLR lethal -1, ugtP null kill 5 and Autofluor counter 3838.
Screening Cc1cc(C)cc(OCC(=O)OCC(=O)Nc2cc(C)nn2-c2ccccc2)c1 returned RN4220 kill 2.5, PrP 5UTR inh -14, Mtb hypoxia inh 8, ugtP null kill 6, Autofluor counter 3898 and Mtb hypoxia inh growth -1.
CCCCCCOc1ccc(/C(C)=N/NC2=NCCN2)cc1 was read as PrP 5UTR inh -29, BJeLR lethal 3 and Autofluor counter 4013.
For COc1ccc(CCNC(=O)CC2(CC3=NS(=O)(=O)c4ccccc4N3)CCCC2)cc1OC the results were RN4220 kill 2.3, PrP 5UTR inh -9, BJeLR lethal 3, Mtb hypoxia inh 3, ugtP null kill -1, Autofluor counter 5588 and Mtb hypoxia inh growth 2.
CCC(=O)c1cn(CC(=O)Nc2ccccc2Cl)c2ccccc12 was read as RN4220 kill 1.3, PrP 5UTR inh -1, BJeLR lethal 9, Mtb hypoxia inh -5, ugtP null kill -2, Autofluor counter 4205 and Mtb hypoxia inh growth 4.
For COc1cc2c(cc1OC)C(c1cccnc1)CC(=O)N2 (configuration not stated) the results were RN4220 kill 2.5, PrP 5UTR inh -14, BJeLR lethal 5, Mtb hypoxia inh 10, ugtP null kill 6, Autofluor counter 5709 and Mtb hypoxia inh growth 8.
CCOc1ccc(N2C(=O)Nc3ccc(Br)cc3C2(O)C(=O)NCCCN(C)C)cc1 (configuration not stated) was read as RN4220 kill 2.6, PrP 5UTR inh -12, BJeLR lethal -12, Mtb hypoxia inh 11, ugtP null kill 17, Autofluor counter 3659 and Mtb hypoxia inh growth 5.
CC(C)(C)c1ccc(OCCC(=O)NC2=NCCS2)cc1 was read as RN4220 kill 2.2, PrP 5UTR inh -15, BJeLR lethal -1, Mtb hypoxia inh -5, ugtP null kill 11, Autofluor counter 2355 and Mtb hypoxia inh growth -3.
For Cc1ccccc1NC(=O)CNc1ccc(Cl)c(C(F)(F)F)c1 the results were RN4220 kill 0.6, PrP 5UTR inh -6, BJeLR lethal -1, ugtP null kill 5 and Autofluor counter 2643.
Screening O=C1CCCC2=C1C(c1cccs1)Nc1ccc3ncccc3c12 (configuration not stated) returned RN4220 kill 5.5, PrP 5UTR inh 8, BJeLR lethal 4, Mtb hypoxia inh 13, ugtP null kill 2, Autofluor counter 23605* and Mtb hypoxia inh growth 10.
Screening CCn1c(SC(C)C(=O)N2CCOCC2)nc2sc(C)c(C)c2c1=O (configuration not stated) returned RN4220 kill -0.8, PrP 5UTR inh -4, BJeLR lethal 2, Mtb hypoxia inh 3, ugtP null kill 7, Autofluor counter 3786 and Mtb hypoxia inh growth -2.
Cc1cccc(-n2nc3c(c2NC(=O)c2ccc4c(c2)OCO4)CS(=O)(=O)C3)c1C was read as RN4220 kill 0.1, PrP 5UTR inh 1, BJeLR lethal -2, Mtb hypoxia inh 6, ugtP null kill 9, Autofluor counter 4364 and Mtb hypoxia inh growth 5.
`CC(=NO)c1no[n+]([O-])c1C(C)=NO` gave RN4220 kill 2.9, Mtb hypoxia inh -5, ugtP null kill 0 and Mtb hypoxia inh growth -7.
CCn1cnc2cc(NCc3ccccc3Cl)ccc21 was read as RN4220 kill 2.3, PrP 5UTR inh -60, BJeLR lethal 3, Mtb hypoxia inh -1, ugtP null kill -1, Autofluor counter 3715 and Mtb hypoxia inh growth -10.

Ordered by length of the SMILES (smallest number first): some entries from above
CCn1cnc2cc(NCc3ccccc3Cl)ccc21 was read as RN4220 kill 2.3, PrP 5UTR inh -60, BJeLR lethal 3, Mtb hypoxia inh -1, ugtP null kill -1, Autofluor counter 3715 and Mtb hypoxia inh growth -10.
`CC(=NO)c1no[n+]([O-])c1C(C)=NO` gave RN4220 kill 2.9, Mtb hypoxia inh -5, ugtP null kill 0 and Mtb hypoxia inh growth -7.
For COc1ccc(CCNC(=O)CC2(CC3=NS(=O)(=O)c4ccccc4N3)CCCC2)cc1OC the results were RN4220 kill 2.3, PrP 5UTR inh -9, BJeLR lethal 3, Mtb hypoxia inh 3, ugtP null kill -1, Autofluor counter 5588 and Mtb hypoxia inh growth 2.

Other entries follow.
Screening CC(=O)Nc1cccc(NC(=O)Nc2ccc(C)c(Cl)c2)c1 returned RN4220 kill -2.5, PrP 5UTR inh -42, BJeLR lethal 0, Mtb hypoxia inh -1, ugtP null kill 0, Autofluor counter 4481 and Mtb hypoxia inh growth 21.
`O=C(Cc1ccccc1)NN=Cc1ccc2c(c1)OCO2` gave RN4220 kill 0.1, Mtb hypoxia inh 2, ugtP null kill 3 and Mtb hypoxia inh growth 3.
`Cc1ccccc1-c1nc(S(=O)(=O)c2ccc(Cl)cc2)c(NCCN2CCOCC2)o1` gave RN4220 kill 4.9, PrP 5UTR inh -21, BJeLR lethal -2, Mtb hypoxia inh 9, ugtP null kill -3, Autofluor counter 10493 and Mtb hypoxia inh growth -2.
CCc1cc2c(CN3CCN(C)CC3)cc(=O)oc2cc1O was read as RN4220 kill 7.2, PrP 5UTR inh -13, BJeLR lethal -5, Mtb hypoxia inh 11, ugtP null kill 1, Autofluor counter 10727 and Mtb hypoxia inh growth 7.
For CCN1C(=O)c2cccc3c(S(=O)(=O)NCCc4c[nH]c5ccccc45)ccc1c23 the results were RN4220 kill 14, PrP 5UTR inh 2, BJeLR lethal 1, Mtb hypoxia inh 7, ugtP null kill -8, Autofluor counter 5634 and Mtb hypoxia inh growth 9.
For Cc1ccc(-c2cc(C(=O)N3CCOCC3)no2)cc1 the results were RN4220 kill 1.1, PrP 5UTR inh -4, BJeLR lethal 6, Mtb hypoxia inh 1, ugtP null kill 11, Autofluor counter 4574 and Mtb hypoxia inh growth 4.
`COc1ccccc1NC(=O)Cn1ccn(-c2cccc3ccccc23)c(=O)c1=O` gave RN4220 kill 0.0, PrP 5UTR inh -2, BJeLR lethal 0, Mtb hypoxia inh -1, ugtP null kill 2, Autofluor counter 6293 and Mtb hypoxia inh growth 12.
O=C(NC1CC(=O)N(c2ccc(Cl)cc2)C1)N1CCN(C(=O)c2ccco2)CC1 (configuration not stated) was read as RN4220 kill 1.6, PrP 5UTR inh -26, BJeLR lethal -5, Mtb hypoxia inh -1, ugtP null kill 0, Autofluor counter 5914 and Mtb hypoxia inh growth 1.
For COc1cc(/C=N/N2C(=O)C3C4c5ccccc5C(c5ccccc54)C3C2=O)ccc1O (configuration not stated) the results were PrP 5UTR inh -42, BJeLR lethal 3 and Autofluor counter 2111.
`COc1cc(OC)cc(C(=O)Nc2ncc3c(n2)CC(C)(C)CC3=O)c1` gave RN4220 kill 6.2, PrP 5UTR inh -13, BJeLR lethal 0, Mtb hypoxia inh 2, ugtP null kill 2, Autofluor counter 2552 and Mtb hypoxia inh growth 2.
O=C(O)c1csc(-c2ccccc2)n1 was read as RN4220 kill 2.5, PrP 5UTR inh -23, BJeLR lethal 0, Mtb hypoxia inh 7, ugtP null kill 3, Autofluor counter 4316 and Mtb hypoxia inh growth 6.
For Cc1ccc(S(=O)(=O)NC2(C(F)(F)F)NC(=O)N(c3ccccc3F)C2=O)cc1 (configuration not stated) the results were RN4220 kill -1.9, PrP 5UTR inh -22, BJeLR lethal 17, Mtb hypoxia inh 8, ugtP null kill 9, Autofluor counter 5575 and Mtb hypoxia inh growth 6.
Screening C#CCSc1nc(Cc2ccc(Cl)cc2)nc2ccccc12 returned RN4220 kill 3.0, PrP 5UTR inh -12, BJeLR lethal 3, Mtb hypoxia inh 3, ugtP null kill 3, Autofluor counter 5138 and Mtb hypoxia inh growth 9.
For COC(=O)COc1cc(C)cc2oc(=O)c(CC(=O)OC)c(C)c12 the results were RN4220 kill 8.7, PrP 5UTR inh -19, BJeLR lethal 2, ugtP null kill 8 and Autofluor counter 3079.
`CC(C)(C)n1nnnc1C(c1ccc(F)cc1)N1CCN(Cc2ccc3c(c2)OCO3)CC1` (configuration not stated) gave RN4220 kill 1.6, PrP 5UTR inh -10, BJeLR lethal -2, Mtb hypoxia inh 6, ugtP null kill -2, Autofluor counter 4270 and Mtb hypoxia inh growth 12.
For COc1ccc(NC(=O)C(NC(=O)Cc2cccs2)c2ccc(C)cc2)cc1 (configuration not stated) the results were RN4220 kill 0.4, PrP 5UTR inh -23, BJeLR lethal 7, Mtb hypoxia inh -10, ugtP null kill -5, Autofluor counter 8801 and Mtb hypoxia inh growth 7.
Screening CC(NS(=O)(=O)c1ccc(Br)cc1)C(=O)NCC1CCCO1 (configuration not stated) returned RN4220 kill 2.4, PrP 5UTR inh -13, BJeLR lethal 1, Mtb hypoxia inh -5, ugtP null kill 9, Autofluor counter 3790 and Mtb hypoxia inh growth 1.
Screening Cc1cccc(C(=O)Nc2nnc(Cc3ccccc3)s2)c1 returned RN4220 kill 4.8, PrP 5UTR inh -8, BJeLR lethal -10, Mtb hypoxia inh -1, ugtP null kill 2, Autofluor counter 3338 and Mtb hypoxia inh growth 5.
`CC(=O)N1CCN(Cc2nc3cc(NC(=O)c4ccccc4C)ccc3n2C)CC1` gave RN4220 kill 0.0, PrP 5UTR inh -13, BJeLR lethal -6, ugtP null kill 0 and Autofluor counter 5866.
Screening CCOC(=O)C1CCCN(c2c(Nc3ccc(C)c(C)c3)c(=O)c2=O)C1 (configuration not stated) returned RN4220 kill 3.9, PrP 5UTR inh -4, BJeLR lethal -12, Mtb hypoxia inh 4, ugtP null kill 11, Autofluor counter 4428 and Mtb hypoxia inh growth 4.
Screening O=c1[nH]cn[nH]1 returned RN4220 kill 0.9, PrP 5UTR inh -9, BJeLR lethal 11, ugtP null kill 10 and Autofluor counter 5292.
CCCn1cc(S(=O)(=O)c2ccc(C)cc2)c(=O)c2cc(OC)ccc21 was read as RN4220 kill 1.3, PrP 5UTR inh -14, BJeLR lethal 1, Mtb hypoxia inh -4, ugtP null kill -3, Autofluor counter 5319 and Mtb hypoxia inh growth 0.
Cc1nnsc1-c1c(C(=O)O)c(C)nn1-c1ccc(OC(F)(F)F)cc1 was read as RN4220 kill 3.4, PrP 5UTR inh -14, BJeLR lethal 1, Mtb hypoxia inh 13, ugtP null kill 2, Autofluor counter 5898 and Mtb hypoxia inh growth 3.
`Cc1cccc(C(=O)Nc2ccccc2C(=O)OCc2c(C)noc2C)c1` gave RN4220 kill -1.9, PrP 5UTR inh -10, BJeLR lethal -16, Mtb hypoxia inh 5, ugtP null kill 7, Autofluor counter 8423 and Mtb hypoxia inh growth 9.
`C/C(N)=C(/C#N)C(=O)COC(=O)c1ccc(OCC2CCCO2)cc1` (configuration not stated) gave RN4220 kill 3.5, PrP 5UTR inh -10, BJeLR lethal -16, Mtb hypoxia inh -1, ugtP null kill 5, Autofluor counter 4032 and Mtb hypoxia inh growth -2.
`Cc1ccc(S(=O)(=O)N2C[C@@H]3[C@H]4CC[C@H](C4)[C@@H]3[C@@H](C)[C@@H]2c2ccn([Si](C(C)C)(C(C)C)C(C)C)c2)cc1` gave RN4220 kill 2.5, PrP 5UTR inh -10, Mtb hypoxia inh 3, ugtP null kill 2, Autofluor counter 3103 and Mtb hypoxia inh growth 0.
`CCC(C)c1ccc(N(C(=O)c2ccco2)C(C(=O)NC2CCCC2)c2cccnc2)cc1` (configuration not stated) gave RN4220 kill 2.9, PrP 5UTR inh -22, BJeLR lethal 4, Mtb hypoxia inh 17, ugtP null kill -8, Autofluor counter 3755 and Mtb hypoxia inh growth 7.
For COc1ccc(C(=O)NNC(=O)CSc2nnnn2-c2cc(OC)cc(OC)c2)cc1 the results were RN4220 kill 2.7, PrP 5UTR inh -7, BJeLR lethal -8, Mtb hypoxia inh 12, ugtP null kill 4, Autofluor counter 3339 and Mtb hypoxia inh growth -10.
Cc1cc(C)c(NC(=O)c2ccccc2N(C)S(C)(=O)=O)c(C)c1 was read as RN4220 kill -0.1, BJeLR lethal -2, Mtb hypoxia inh -4, ugtP null kill -1, Autofluor counter 10589 and Mtb hypoxia inh growth 4.
`COc1cc(S(=O)(=O)Nc2ccc(C)cc2)ccc1N=Cc1c(C)[nH]n(-c2ccc(C)cc2)c1=O` gave RN4220 kill 2.7, PrP 5UTR inh -11, BJeLR lethal 11, Mtb hypoxia inh 2, ugtP null kill -3, Autofluor counter 2388 and Mtb hypoxia inh growth 15.
CCOC(=O)CN1C(=O)S/C(=C/c2cc(C)n(C)c2C)C1=O was read as RN4220 kill 5.6, PrP 5UTR inh -67, BJeLR lethal 6, ugtP null kill -1 and Autofluor counter 3103.
